FGF22 binding – binders of human FGF22 protein, primary screen, FGF22 synaptogenesis inhibitor project, biophysical, thermal shift, single point. Fibroblast growth factor 22 (Homo sapiens), Q9HCT0. recombinant FGF22 thermal shift, SYPRO orange fluorescence; percent of sucrose octasulfate shift, DMSO zero. calls only at 9.99 µM. actives 1.5% (n = 340,000). AID 651658, 2012;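 active means melting point raised past a set limit in the mean and every replicate; three in four hits are not shown here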
Target sequence (Q9HCT0 whole entry, looked up): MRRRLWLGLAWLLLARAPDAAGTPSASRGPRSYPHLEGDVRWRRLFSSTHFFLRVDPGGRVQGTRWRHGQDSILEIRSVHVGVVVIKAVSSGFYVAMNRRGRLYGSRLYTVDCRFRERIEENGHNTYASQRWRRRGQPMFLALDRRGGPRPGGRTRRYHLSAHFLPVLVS
MLL AF4-AF9 inh – inhibitors of AF4 peptide binding to AF9, primary screen, biochemical, AlphaScreen, biotin-AF4 peptide, FLAG-AF9, single point. actives 0.47% (n = 350,000). inhibition, % at 10 µM. AID 651704, 2012;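 active means every replicate reaching a set inhibition limit, whatever the replicate mean, cut at about 25% in these data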;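 further: 0% = plate neutral control median and 100% = total signal loss; the record names both 10 and 1 µM as test concentration; the first replicate is given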
Target sequence (P42568 whole entry, looked up): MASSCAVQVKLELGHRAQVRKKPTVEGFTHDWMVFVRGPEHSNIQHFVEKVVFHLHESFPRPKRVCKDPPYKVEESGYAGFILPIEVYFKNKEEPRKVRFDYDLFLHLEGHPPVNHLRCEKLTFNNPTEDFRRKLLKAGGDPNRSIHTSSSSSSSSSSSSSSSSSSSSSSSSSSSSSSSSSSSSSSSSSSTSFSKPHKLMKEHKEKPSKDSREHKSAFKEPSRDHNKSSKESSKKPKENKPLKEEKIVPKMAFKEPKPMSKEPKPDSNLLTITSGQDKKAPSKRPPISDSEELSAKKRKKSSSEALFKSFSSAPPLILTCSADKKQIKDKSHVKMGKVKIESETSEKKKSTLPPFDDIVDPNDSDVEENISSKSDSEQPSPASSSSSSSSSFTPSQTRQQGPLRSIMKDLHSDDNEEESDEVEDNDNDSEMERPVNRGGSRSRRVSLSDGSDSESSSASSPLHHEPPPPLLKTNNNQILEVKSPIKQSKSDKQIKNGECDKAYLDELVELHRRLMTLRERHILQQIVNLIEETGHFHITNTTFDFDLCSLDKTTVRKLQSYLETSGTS
Ecoli rRNA inh – reduced GFP signal of wild-type E. coli, primary screen, bacterial rRNA inhibitor project, GFP/RFP fluorescence, OD600, single point | E. coli WT GFP vs humanized-ribosome RFP mutants, 24 h; active compounds read low; DMSO median 0, no signal -100 | actives 1.6% (n = 350,000) | AID 720706, 2013 | GFP signal change (wild-type ribosome), % (no concentration beside the values);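 active means significant combined selectivity score with lowered wild-type GFP, culture density cut under 30%, mutant RFP and density less affected; inactive means any of these conditions unmet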; further: one replicate is shown; some compounds called inactive have numbers as strong as hits
Ecoli rRNA inh OD600 – second read-out of Ecoli rRNA inh, no call of its own (marks repeat the call); OD600 change, %; measured here: OD600 growth;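 optical density of the mix in the first replicate; 0 = DMSO median and -100 = no signal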
Ecoli rRNA inh RFP – recorded beside Ecoli rRNA inh, whose call it bears; RFP signal change, %; measured here: RFP humanized mutant strains;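 first replicate; 0 = DMSO median and -100 = no signal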
Numbers without * were called inactive; i = inactive; x = not tested or not shown; + = active, no number; & = joins results of further samples.

#1 COCC(=O)Nc1ccc2c(c1)C(=O)N(C)C[C@H](OC)[C@H](C)CN(C(=O)c1ccccc1)[C@@H](C)CO2
#2 CC(C)NC(=O)Nc1ccc2c(c1)CC(=O)N([C@@H](C)CO)C[C@H](C)[C@@H](CN(C)S(=O)(=O)c1cccs1)O2
#3 Cc1ccc(S(=O)(=O)N(C)C[C@@H]2Oc3c(NC(=O)Nc4ccc5c(c4)OCO5)cccc3C(=O)N([C@H](C)CO)C[C@@H]2C)cc1
#4 CN(C1CCCCC1)S(=O)(=O)c1ccc(SCC(N)=O)nc1
#5 CC1CCN(C(=O)c2[nH]c(C(F)(F)F)nc2-c2ccccc2)CC1
#6 CCCC(=O)Nc1ccc2c(c1)C(=O)N(C)C[C@@H](OC)[C@H](C)CN(C(=O)c1ccccc1F)[C@H](C)CO2

assay / compound | 1 | 2 | 3 | 4 | 5 | 6
FGF22 binding | i | i | i | i | i | i
MLL AF4-AF9 inh | 0.0 | -7.2 | -2.0 | -5.5 | 0.3 | 0.7
Ecoli rRNA inh | 1 | 3 | -5 | 0 | -7 | 1
Ecoli rRNA inh OD600 | -1 | 6 | -8 | -1 | -5 | -2
Ecoli rRNA inh RFP | 1.2 | 0.6 | 1.0 | 0.9 | -0.9 | 1.4

Next section, overlapping the part above by 4 compounds.
#3 Cc1ccc(S(=O)(=O)N(C)C[C@@H]2Oc3c(NC(=O)Nc4ccc5c(c4)OCO5)cccc3C(=O)N([C@H](C)CO)C[C@@H]2C)cc1
#4 CN(C1CCCCC1)S(=O)(=O)c1ccc(SCC(N)=O)nc1
#5 CC1CCN(C(=O)c2[nH]c(C(F)(F)F)nc2-c2ccccc2)CC1
#6 CCCC(=O)Nc1ccc2c(c1)C(=O)N(C)C[C@@H](OC)[C@H](C)CN(C(=O)c1ccccc1F)[C@H](C)CO2
#7 CS(=O)(=O)N1CC(=O)N2[C@H](CO)[C@@H](c3ccc(C#CCc4ccccc4)cc3)[C@@H]2C1
#8 CCS(=O)(=O)Nc1ccc2c(c1)C(=O)N(C)C[C@H](OC)[C@@H](C)CN(C(=O)C1CC1)[C@@H](C)CO2
#9 CN(C)C(=O)c1ccc(-c2ccc3c(c2)[C@H]2[C@H](CCN2Cc2ccc4c(c2)OCO4)[C@H](CO)N3)cc1
#10 COc1ccccc1C#Cc1ccc([C@H]2[C@@H](CO)N3CCCCN(CCC(F)(F)F)C[C@H]23)cc1
#11 NC(CCc1ccccc1)c1csc(NC(=O)NCC2CCCCC2)n1 (stereo not given)
#12 COc1ccc(NC(=O)N(C)C[C@H]2OCCCC[C@@H](C)Oc3ccc(NC(=O)Nc4c(C)noc4C)cc3C(=O)N([C@H](C)CO)C[C@@H]2C)cc1

assay / compound | 3 | 4 | 5 | 6 | 7 | 8 | 9 | 10 | 11 | 12
FGF22 binding | i | i | i | i | i | i | i | i | i | i
MLL AF4-AF9 inh | -2.0 | -5.5 | 0.3 | 0.7 | 3.4 | -0.3 | 0.0 | 12 | 2.3 | -5.4
Ecoli rRNA inh | -5 | 0 | -7 | 1 | -1 | 1 | 14 | -60 | -27 | 0
Ecoli rRNA inh OD600 | -8 | -1 | -5 | -2 | -11 | 8 | -2 | -76 | -36 | 0
Ecoli rRNA inh RFP | 1.0 | 0.9 | -0.9 | 1.4 | 1.1 | -1.1 | 0.6 | -12 | -11 | -3.1

#13 CCCCn1nnnc1C1(C)CCC(=O)N1CCc1ccc(OC)c(OC)c1 (stereo not given)
#14 Cc1ccc(S(=O)(=O)N(C)C[C@@H]2Oc3ccc(NC(=O)c4ccncc4)cc3CC(=O)N([C@@H](C)CO)C[C@H]2C)cc1
#15 CN1C(=O)c2cc(NC(=O)C3CCOCC3)ccc2OC[C@H]2O[C@H](CC(=O)NCc3ccccc3F)CC[C@@H]21
#16 O=C(C[C@@H]1C/C=C\C[C@@H](Cc2ccc(F)cc2)C(=O)OC[C@@H]2CCCN2C1=O)NCCO
#17 C[C@H](CO)N1C[C@H](C)[C@@H](CN(C)Cc2ccc(C(=O)O)cc2)Oc2ncc(C#CCN(C)C)cc2C1=O
#18 C[C@@H]1CN([C@@H](C)CO)C(=O)c2cc(NC(=O)Cn3cnnn3)ccc2O[C@H]1CN(C)C

assay / compound | 13 | 14 | 15 | 16 | 17 | 18
FGF22 binding | i | i | i | i | i | i
MLL AF4-AF9 inh | 0.0 | 0.7 | -0.4 | -2.1 | -7.3 | -2.0
Ecoli rRNA inh | 18 | -2 | 1 | 16 | 4 | -2
Ecoli rRNA inh OD600 | 15 | -7 | 13 | 10 | 5 | 10
Ecoli rRNA inh RFP | 2.0 | 1.3 | -1.6 | 2.1 | -0.4 | 0.1

#19 CC(=O)N1CCC(C(=O)N2c3ccccc3N=C(c3ccc4c(c3)OCO4)C2C(=O)Nc2c(C)cccc2C)CC1 (stereo not given)
#20 COc1ccc(S(=O)(=O)Nc2cccc3c2O[C@H](CN(C)C)[C@H](C)CN([C@H](C)CO)C3=O)cc1
#21 COCC(=O)N1[C@H](C#N)[C@@H](c2ccccc2-c2ccccc2F)[C@@H]1CO
#22 CCCC#Cc1ccc2c(c1)O[C@@H](CN(C)CCC)[C@@H](C)CN([C@H](C)CO)S2(=O)=O
#23 COc1ccccc1NC(=O)N1C[C@@H](O)COC[C@H]2O[C@@H](CC(=O)NCCc3ccncc3)CC[C@@H]21
#24 CC[C@@H]1Cc2[nH][nH]c(=O)c2[C@@H](c2ccc(F)cc2)O1

assay / compound | 19 | 20 | 21 | 22 | 23 | 24
FGF22 binding | i | i | i | i | i | i
MLL AF4-AF9 inh | 0.9 | -0.5 | -3.1 | -1.8 | -0.3 | -4.4
Ecoli rRNA inh | -3 | -2 | -1 | 4 | 4 | 2
Ecoli rRNA inh OD600 | 3 | 0 | 4 | 6 | 3 | 4
Ecoli rRNA inh RFP | -5.4 | -1.0 | -0.4 | 0.6 | -2.5 | -4.6

#25 Cc1noc(C)c1NC(=O)N(C)C[C@H]1Oc2c(NS(=O)(=O)c3cn(C)cn3)cccc2C(=O)N([C@@H](C)CO)C[C@@H]1C
#26 CC[C@]1(C(=O)OC)[C@H]2C(=O)N(C)C(=O)[C@H]2[C@H]2CN(C)C(=NCc3ccccc3)N21
#27 CCCC#Cc1ccc2c(c1)[C@@H]1[C@@H](CCN1S(=O)(=O)c1ccc(F)cc1)[C@@H](CO)N2C
#28 COc1ccc2c3c([nH]c2c1)[C@H](CO)N(C(=O)C1CCCC1)CC31CCN(C(=O)NC(C)C)CC1
#29 O=C(C[C@H]1C[C@@H]2c3cc(NS(=O)(=O)c4ccccc4)ccc3O[C@@H]2[C@@H](CO)O1)N1CCOCC1
#30 CO[C@H](CN(C)Cc1ccc2c(c1)OCO2)[C@H](C)CN(C(=O)Nc1ccc(F)cc1)[C@H](C)CO

assay / compound | 25 | 26 | 27 | 28 | 29 | 30
FGF22 binding | i | x | i | i | i | i
MLL AF4-AF9 inh | -0.7 | 1.4 | 7.2 | -1.7 | -7.1 | 0.2
Ecoli rRNA inh | 4 | 6 | -8 | -2 | 0 | 2
Ecoli rRNA inh OD600 | 7 | 11 | -26 | 6 | 6 | 10
Ecoli rRNA inh RFP | 0.3 | 1.1 | 12 | 0.1 | -0.2 | -2.8

#31 COc1ccc(NC(=O)N(C)C[C@@H]2Oc3ccc(NC(=O)Cn4cnnn4)cc3C(=O)N([C@@H](C)CO)C[C@H]2C)cc1
#32 O=S(=O)(c1ccccc1F)N1CCCCN2[C@H](CO)[C@H](c3ccc(-c4ccncc4)cc3)[C@@H]2C1
#33 COc1ccc2c3c([nH]c2c1)[C@H](CO)N(C(=O)c1cccnc1)CC31CCN(C(=O)Nc2cccc(F)c2)CC1
#34 COc1cc(CNC(=O)Nc2nc(C(N)Cc3ccc(C(F)(F)F)cc3)cs2)cc(OC)c1OC (stereo not given)
#35 C[C@H]1CN([C@@H](C)CO)C(=O)c2ccccc2-c2ccccc2CO[C@H]1CN(C)C(=O)Nc1cccc(Cl)c1Cl
#36 C[C@@H]1CN([C@H](C)CO)C(=O)c2cccc(NS(=O)(=O)c3cn(C)cn3)c2O[C@H]1CN(C)C(=O)Nc1ccccc1

assay / compound | 31 | 32 | 33 | 34 | 35 | 36
FGF22 binding | i | i | i | i | i | i
MLL AF4-AF9 inh | -0.1 | -4.3 | 4.6 | 11 | 1.4 | -3.9
Ecoli rRNA inh | -1 | -5 | -4 | -61 | 1 | 4
Ecoli rRNA inh OD600 | 0 | 2 | -10 | -81 | 1 | 3
Ecoli rRNA inh RFP | -1.4 | 4.0 | 0.2 | -22 | 0.2 | -2.4

#37 N#C[C@@H]1[C@@H](c2ccc(C#CC3CCCCC3)cc2)[C@@H](CO)N1C(=O)Cc1ccccn1
#38 C[C@@H]1CN([C@@H](C)CO)C(=O)c2cccc(NS(=O)(=O)c3cccs3)c2O[C@H]1CN(C)Cc1ccc(-c2ccccc2)cc1
#39 COCc1cn(CC[C@H]2CC[C@H](NC(=O)c3ccncc3)[C@H](CO)O2)nn1
#40 C[C@@H]1CN([C@@H](C)CO)C(=O)c2cc(C3=CCCC3)cnc2O[C@@H]1CN(C)Cc1cccc(F)c1
#41 COc1ccccc1Cc1c(-c2ccc(C)cc2)nc2ccc(Br)cn12
#42 CCC(=O)Nc1ccc2c(c1)C(=O)N(C)[C@@H]1CC[C@@H](CC(=O)N[C@@H](C)c3ccccc3)O[C@H]1CO2

assay / compound | 37 | 38 | 39 | 40 | 41 | 42
FGF22 binding | i | i | i | i | x | i
MLL AF4-AF9 inh | 2.7 | 1.5 | -1.1 | -2.1 | 3.7 | -1.5
Ecoli rRNA inh | -1 | -1 | 2 | -3 | -5 | -1
Ecoli rRNA inh OD600 | -23 | -4 | 7 | -3 | -4 | 2
Ecoli rRNA inh RFP | 25 | 2.4 | -3.2 | 6.0 | -3.8 | -0.8

#43 COc1ccc(NC(=O)N2CCCCN3[C@H](CO)[C@@H](c4ccc(-c5ccccc5C)cc4)[C@H]3C2)cc1
#44 CCOC(=O)CCCCCC(=O)Nc1ccc2c(c1)C(=O)N([C@@H](C)CO)C[C@H](C)[C@H](CN(C)C(=O)c1ccccc1)OCCCC[C@H](C)O2
#45 C/C=C/c1ccc2c(c1)O[C@H](CN(C)Cc1ccccc1)[C@@H](C)CN([C@@H](C)CO)S2(=O)=O
#46 Cc1ccc(-n2c(-c3ccc(Br)cc3)n[nH]c2=S)c(C)c1
#47 CC1=C(C(=O)N2CCCCCC2)CC(CC(=O)NC2CCCCC2)C(=O)N1Cc1ccc(C(C)(C)C)cc1 (stereo not given)
#48 O=[N+]([O-])c1ccccc1Nc1cccc(F)c1

assay / compound | 43 | 44 | 45 | 46 | 47 | 48
FGF22 binding | i | i | i | i | i | x
MLL AF4-AF9 inh | 13 | 0.6&-8.9 | 10 | -5.6 | 2.5 | -1.9
Ecoli rRNA inh | -58 | 5&-1 | -53 | -44 | -14 | -2
Ecoli rRNA inh OD600 | -75 | 16&-4 | -78 | -64 | -23 | 0
Ecoli rRNA inh RFP | -13 | 0.5&-0.8 | -14 | -10 | 0.5 | -0.5

Quoted at random: two records from the list, in no set order.
#45 C/C=C/c1ccc2c(c1)O[C@H](CN(C)Cc1ccccc1)[C@@H](C)CN([C@@H](C)CO)S2(=O)=O
#44 CCOC(=O)CCCCCC(=O)Nc1ccc2c(c1)C(=O)N([C@@H](C)CO)C[C@H](C)[C@H](CN(C)C(=O)c1ccccc1)OCCCC[C@H](C)O2

assay / compound | 45 | 44
FGF22 binding | i | i
MLL AF4-AF9 inh | 10 | 0.6&-8.9
Ecoli rRNA inh | -53 | 5&-1
Ecoli rRNA inh OD600 | -78 | 16&-4
Ecoli rRNA inh RFP | -14 | 0.5&-0.8

Remaining list, next part
#49 NC[C@H]1O[C@@H](n2ccc(N)nc2=O)[C@H](O)[C@@H]1O
#50 O=C(NCc1cccnc1)c1cc(C2CCCCN2C(=O)OCCF)on1 (stereo not given)
#51 CC(C)c1ccc(Nc2nc(N3CCOCC3)nc(N3CCOCC3)n2)cc1
#52 COc1ccc(C(=O)COc2ccc(C(C)=O)cc2OC)cc1OC
#53 C[C@H](CO)N1C[C@H](C)[C@@H](CN(C)S(=O)(=O)c2ccc(F)cc2)Oc2ncc(Br)cc2C1=O
#54 C[C@H](CO)N1C[C@H](C)[C@H](CN(C)C(=O)C2CCOCC2)Oc2ncc(C#Cc3ccccc3F)cc2C1=O
#55 C[C@@H]1CN([C@@H](C)CO)C(=O)Cc2cc(NS(=O)(=O)c3ccc(Cl)cc3)ccc2O[C@H]1CN(C)C(=O)Nc1ccc(C(F)(F)F)cc1
#56 COC(=O)CSc1nnc(CNC(=O)c2ccccc2OC)n1-c1ccc(OC)cc1

assay / compound | 49 | 50 | 51 | 52 | 53 | 54 | 55 | 56
FGF22 binding | i | i | + | i | i | i | i | i
MLL AF4-AF9 inh | 8.3 | -2.6 | -0.9 | -0.1 | 0.1&0.3 | -1.1 | 0.5 | -11
Ecoli rRNA inh | 12 | 12 | 7 | -6 | -16&-8 | 5 | 2 | 4
Ecoli rRNA inh OD600 | 11 | 23 | -2 | 11 | -9&-7 | 17 | -9 | 3
Ecoli rRNA inh RFP | 1.0 | 1.3 | -1.6 | 27 | 3.8&-1.0 | -0.5 | 0.2 | 0.8

High-throughput results: PubChem BioAssay, Broad Institute

An excerpt; the hit share may differ from the screen's.
